Assay outcomes from PubChem.
TRPML1 blocker: qHTS for Inhibitors of the Human Mucolipin Transient Receptor Potential 1 (TRPML1) | Mucolipin-1 (Homo sapiens), Q9GZU1 | TRPML1-inducible cells, Ca2+ dye fluorescence, FDSS; hits give low values; inhibition of EC80 agonist-evoked calcium signal | activity change, negative = inhibition, % (no concentration beside the values) | hit rate 0.02% among 390,000; in the data active means activity change below about -50%; inconclusive means about -30% to -50%; inactive means above about -30%;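 also: stimulus is agonist 54-4 at its EC80 concentration; % is scaled to controls: 0 for no effect and ±100 for the full control effect; compound concentration not given in the record; the text of the record puts the active cut at -80%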
Target sequence (Q9GZU1 whole entry, looked up): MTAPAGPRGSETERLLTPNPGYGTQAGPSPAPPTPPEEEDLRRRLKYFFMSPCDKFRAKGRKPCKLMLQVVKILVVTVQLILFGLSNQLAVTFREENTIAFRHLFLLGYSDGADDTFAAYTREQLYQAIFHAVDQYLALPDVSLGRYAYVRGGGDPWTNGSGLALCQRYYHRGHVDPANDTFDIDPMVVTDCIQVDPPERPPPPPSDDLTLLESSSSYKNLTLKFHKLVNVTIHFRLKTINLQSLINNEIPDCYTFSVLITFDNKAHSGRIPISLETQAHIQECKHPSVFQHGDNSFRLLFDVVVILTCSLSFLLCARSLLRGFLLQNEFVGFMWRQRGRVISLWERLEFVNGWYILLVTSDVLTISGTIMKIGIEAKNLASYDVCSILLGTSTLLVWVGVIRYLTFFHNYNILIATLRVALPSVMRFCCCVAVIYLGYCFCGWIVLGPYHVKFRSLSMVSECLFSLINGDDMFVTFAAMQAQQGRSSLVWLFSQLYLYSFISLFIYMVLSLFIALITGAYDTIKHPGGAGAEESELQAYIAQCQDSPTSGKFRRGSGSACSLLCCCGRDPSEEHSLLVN
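Tet-induced TRPML1-DL cells loaded with Ca8 no-wash calcium dye were read kinetically on FDSS. Compound addition was followed by EC80 agonist 54-4 (4 uM final); inhibition was read over 110 s.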
PINK1 expr mod: A Quantitative High throughput Screen to Identify Chemical Modulators of PINK1 Expression. PINK1 immunofluorescence, high-content cytometry, 24 h. Potency, µM (doses to about 76.6 µM), for inactives: top-dose activation (PINK1 increase), actives largely listed as activators. hit rate 0.2% among 410,000; active = well fitted activation curve with a large enough effect; inconclusive = small, poorly fitted or top-dose-only effect; inactive = flat fitted curve, though single readings scatter; cell line not stated here;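 also: potency is read from the fitted curve at half-maximal effect; % of control where 0% means no effect; nearly all actives have a fitted effect of over 65% in size; a mitochondrial uncoupler was the plate control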
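PINK1 protein level read as immunofluorescence by microplate cytometer in a fixed, stained stable cell line after 24 h exposure to five compound concentrations, with CCCP as control.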
Sfp inh: qHTS Assay for Inhibitors of Bacillus subtilis Sfp phosphopantetheinyl transferase (PPTase); Potency, µM, for the others: max response, negative = inhibition, most hits filed as inhibitors; 4'-phosphopantetheinyl transferase ffp (Bacillus subtilis), Q9F4F7; Biochemical Sfp PPTase activity, qHTS; AID 1490, 2009; hit rate 3.5% among 310,000; active = well fitted inhibition curve with a large enough effect; inconclusive = small, poorly fitted or top-dose-only effect, or another doubt; inactive = no such curve, though single readings can be large or run the other way;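 also: the enzyme is Sfp with the accession as filed and its product quenches rhodamine fluorescence; potency is read from the fitted curve at half-maximal effect; 0% = enzyme reaction without inhibitor and -100% = no enzyme wells; top concentration of the series not given in the record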
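Compounds were incubated with enzyme (final 15 nM) for 15 min at room temperature before substrate addition started the reaction. Fluorescence at 525 nm excitation, 598 nm emission was recorded immediately and after 30 minutes.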
Menin MLL FP FL: qHTS Assay for Inhibitors Targeting the Menin-MLL Interaction in MLL Related Leukemias: Competition With Fluorescein Labeled MLL-derived Peptide. Fluorescence polarization, fluorescein-MLL peptide displacement from menin. FP activity change, % at 61.4 µM. 290,000 tested, under 10 active. AID 1766, 2009; inconclusive = falling polarisation curve, or a change in total fluorescence; inactive = total fluorescence flat and polarisation flat or rising; no compound was filed as active; the % refers to the polarisation; negative = inhibition;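 also: % of control where 0% means no effect; inhibitors lower the polarisation; unlabelled MLL peptide was the positive control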
TRPML1 ag: qHTS for Agonists of the Human Mucolipin Transient Receptor Potential 1 (TRPML1); Mucolipin-1 (Homo sapiens), Q9GZU1; TRPML1-expressing cells, Ca2+ dye fluorescence, FDSS; host cell line not named in the record; reference of the full effect not given here; activation, % (test concentration not listed); hit rate 0.12% among 410,000; AID 624414, 2012; in the data active = activation above about 50%; inconclusive = about 30% to 50%; inactive = below about 30%; also: 0% is about no effect; the text of the record puts the active cut at 80%
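TRPML1-DL cells, Tet-induced overnight (~16 h, 37 degrees C), loaded 45-90 min at room temperature with Ca8 no-wash calcium dye plus quencher. FDSS fluorescence: 10 s baseline, compound pin-transfer, 110 s agonist read, then EC80 54-4 (4uM final) and 110 s antagonist read.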
ClpP mod: qHTS Assay for Activators of ClpP | Potency, µM (highest dose often 57.5 µM), inactives show at the highest dose activity change, negative = active | hit rate 1.9% among 340,000 | ATP-dependent Clp protease proteolytic subunit (Bacillus subtilis (strain 168)), P80244 | purified B. subtilis ClpP, FRET peptide cleavage, 20 min; active = well fitted falling curve with a large enough effect; inconclusive = small, poorly fitted or top-dose-only effect; inactive = no such curve, though single readings can be large or run the other way; also: potency is read from the fitted curve at half-maximal effect; the source files actives as falling curves though it sought activators and does not explain the sign; nearly all actives have a fitted effect of over 65% in size; many hits overshoot -100%
Target sequence (P80244 whole entry, looked up): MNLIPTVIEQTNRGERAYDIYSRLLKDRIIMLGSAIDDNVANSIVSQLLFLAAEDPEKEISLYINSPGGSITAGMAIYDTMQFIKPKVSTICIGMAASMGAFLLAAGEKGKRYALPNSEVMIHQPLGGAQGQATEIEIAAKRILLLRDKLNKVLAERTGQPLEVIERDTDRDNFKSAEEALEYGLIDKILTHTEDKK
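Buffer: 100 mM Tris/HCl pH8, 100 mM KCl, 0.05% low protease BSA, 2.5% glycerol, 0.01% Tween-20. ClpP 10 microg/mL final; 20 min RT; delta FRET normalized to ADEP and DMSO controls.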
TRPV1 potentiator: HTS Assay for Compounds that Act as Potentiators of the Vanilloid Receptor 1 | hit rate 0.02% among 320,000 | Transient receptor potential cation channel subfamily V member 1 (Homo sapiens), Q8NER1 | TRPV1-expressing cells, Fluo-8 calcium influx, capsaicin EC20 potentiation; host cell line not named in the record; control for the full effect not named in the record | potentiation, % at 8.33 µM; active means potentiation above 80%; inconclusive means 30% to 80%; inactive means below 30%; also: 0% is about no effect
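TRPV1-expressing cells were cultured overnight at 35.5C and loaded with Fluo-8 calcium dye for 40 to 90 min at room temperature. After a 10 s baseline, compound was added and calcium influx was read kinetically for 3 min (ex 480/em 520 nm).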
* hit, by the source's call; ? = inconclusive; / = not tested or not shown; & = joins results of further samples; [ ] = remark or other dose.

Start of the listing, in advance, 3 compounds:
SMILES	TRPML1 blocker	PINK1 expr mod	Sfp inh	Menin MLL FP FL	TRPML1 ag	ClpP mod	TRPV1 potentiator
COc1cccc(C2CC(c3ccc(Cl)cc3)n3nc(N)nc3N2)c1 (configuration not stated)	25	1.0%	11%	-3.7	3.4	-2.4%	/
CCc1ccc(NCc2cc3cc4c(cc3n(CC(=O)Nc3ccc(Cl)cc3)c2=O)OCO4)cc1	13	-0.4%	/	/	7.3	4.5%	/
CCc1nnc(NC(=O)CSc2nnc(CSc3nc(C)cc(C)n3)n2C)s1	-14	-2.2%	20%	3.5	-0.3	0.9%	14

This part in full, previewed entries included:
SMILES	TRPML1 blocker	PINK1 expr mod	Sfp inh	Menin MLL FP FL	TRPML1 ag	ClpP mod	TRPV1 potentiator
COc1cccc(C2CC(c3ccc(Cl)cc3)n3nc(N)nc3N2)c1 (configuration not stated)	25	1.0%	11%	-3.7	3.4	-2.4%	/
CCc1ccc(NCc2cc3cc4c(cc3n(CC(=O)Nc3ccc(Cl)cc3)c2=O)OCO4)cc1	13	-0.4%	/	/	7.3	4.5%	/
CCc1nnc(NC(=O)CSc2nnc(CSc3nc(C)cc(C)n3)n2C)s1	-14	-2.2%	20%	3.5	-0.3	0.9%	14
O=C(COC(=O)COc1ccccc1)Nc1ccc(Br)cc1F	6	1.6%	/	/	0.7	-2.3%	/
COc1ccc([N+](=O)[O-])cc1N(CC(O)CN(C)C)S(=O)(=O)c1ccc(C)cc1 (configuration not stated)	17	4.9%	8%	-10	-0.5	-0.4%	-1
O=C(CSc1nccc(=O)[nH]1)c1ccccc1Br	33	2.4%[38.3 µM]	50µM*	7.6	0.1	-1.6%	28
COc1ccc(NC(=O)CSc2nc3c(oc4ccccc43)c(=O)n2-c2ccc(C)c(C)c2)cc1	-6	1.7%	/	/	0.8	-11%	/
Cc1ccc(-c2nc3c(c(SCc4ccc(Br)cc4)n2)Cc2c(CO)cnc(C)c2O3)cc1	24	1.1%	/	/	-0.2	-0.8%	/
CC1(C)CC(=O)C(C(N)=NC(=O)c2ccc([N+](=O)[O-])cc2)=C(O)C1	3	7.7%	10%	-4.8	-0.2	/	17
Cn1c(=O)n(C/C=C/c2ccccc2)c(=O)c2c1nc1n2CCN1c1ccccc1	6	0.9%	/	/	0.2	-2.5%	/
CCOC(=O)c1ccc(NC(=O)Cc2coc3cc(C)cc(C)c23)cc1	15	0.1%	/	/	4.5	-0.2%	/
O=C(CSc1oc(-c2ccc(F)cc2)nc1S(=O)(=O)c1ccc(Br)cc1)NC1CCCCC1	-17	0.2%	/	/	-0.1	-5.7%	/
Cc1ccc(S(=O)(=O)N2[C@@H](c3ccc(Cl)cc3)C(C(=O)O)=CC[C@H]2c2ccc(Cl)cc2)cc1	1	0.2%	/	/	0.5	0.2%	-36
CCOCCCNC(=O)Cn1ncc2c([nH]c3ccc(C)cc32)c1=O	-14	1.5%	/	/	-0.2	?	/
CCc1nnc(NC(=O)CSc2nccn2-c2cccc(C)c2C)s1	-9	6.2%	?	4.3	0.1	-0.8%	/
COc1cccc(OC)c1NC(=O)NC(=O)c1c(OC)c(Br)cc([N+](=O)[O-])c1OC	4	-0.3%	5%	1.5	0.0	-0.9%	/
CC(C)CC(=O)NNC(=O)c1ccc(Cl)cc1	24	0.0%	8%	1.8	1.3	-3.0%	-2
Cc1cc(C)n(-c2nc3cc(Cl)c(Cl)cc3nc2Nc2ccc(F)cc2C)n1	-2	0.2%	/	/	-0.2	0.3%	/
COc1cc2c(cc1OC)C(c1ccc(Cl)cc1)=NCC2	-12	1.3%	28%	0.2	-1.3	-0.2%	0
O=C1C2C3C=CC(C3)C2C(=O)N1c1ccccc1OS(=O)(=O)c1ccccc1 (configuration not stated)	-1	1.4%	-1%	1.4	0.9	-1.3%	-7
CCOC(=O)C1(C)NC(c2cccs2)C2C(=O)N(c3ccccc3)C(=O)C21 (configuration not stated)	-25	1.2%	7%	-2.2	-0.6	/	17
CC1(Oc2cccnc2Cl)CCN(Cc2ccc(OC(F)(F)F)cc2)C1 (configuration not stated)	/	4.1%	/	/	0.0	4.6%	/
N#CCC(=N)N1CCN(c2ccccc2Cl)CC1	25	1.7%	15%	0.7	1.7	-13%	4
COC(=O)CC1C(=O)NCCN1C(=O)c1c(F)cccc1F (configuration not stated)	-2	0.4%	19%	0.8	0.1	/	-5
Cc1nc2ccc(NC(=O)c3cncc(Br)c3)cc2s1	-8	-0.9%	7%	1.0	-0.5	-21%	-4
O=C(NC1CCC(=O)N(CCOc2ccccc2)CC1)OCc1ccccc1 (configuration not stated)	2	0.3%	8%	5.9	-0.9&-0.6	1.9%&0.9%	-11
CC(C)Cc1nnc(NC(=O)CCC(=O)NCCc2ccc(Cl)cc2)s1	16	-0.4%	3%	/	-0.1	-0.5%	2
Cc1ccccc1-c1cc(C(=O)NCc2cccc(Br)c2)n(CC2CC(c3cccnc3)=NO2)n1 (configuration not stated)	4	1.8%	/	/	0.5	-0.9%	/
CCC(=O)NCc1nc2ccccc2n1Cc1ccccc1F	-13	-0.8%	12%	0.5	0.0	-2.5%	0
COc1ccc(C(O)c2nccc3cc(OC)c(OC)cc23)cc1OC (configuration not stated)	-25	0.5%	0%	2.2	0.8	/	1
COc1ccc(N2CC(C(=O)N/N=C/c3cc([N+](=O)[O-])ccc3O)CC2=O)cc1 (configuration not stated)	-11	2.9%	26%	-0.8	0.4	/	12
Cc1ccc(-c2nc3ncccn3c2Nc2ccc3c(c2)OCO3)o1	39	-1.3%	-13%	4.8	-0.6	-0.3%	?
COc1ccccc1NC(=O)C1CC(O)CN1C(=O)Oc1ccccc1 (configuration not stated)	-10	0.1%	12%	-3.4	1.1	/	3
O=C(NCCN1CCC(n2c(=O)[nH]c3ccccc32)CC1)c1ccc(Cl)cc1Cl	/	-0.9%	/	/	0.1	-0.3%	/
O=C(CC(c1cccs1)N1Cc2ccccc2C1=O)Nc1ccccc1F (configuration not stated)	76	1.6%	/	/	2.1	-2.8%	/
CCN(CC)CCSc1c(C(C)C)cnc2c1c(=O)n(C)c(=O)n2C	-12	-0.9%	/	/	0.9	-0.4%	/

Rewritten with two lines to a compound: entries from further up.
Each structure is followed by: TRPML1 blocker	PINK1 expr mod	Sfp inh	Menin MLL FP FL	TRPML1 ag	ClpP mod	TRPV1 potentiator
> O=C(NCCN1CCC(n2c(=O)[nH]c3ccccc32)CC1)c1ccc(Cl)cc1Cl
 : /	-0.9%	/	/	0.1	-0.3%	/
> CCN(CC)CCSc1c(C(C)C)cnc2c1c(=O)n(C)c(=O)n2C
 : -12	-0.9%	/	/	0.9	-0.4%	/

Next entries.
SMILES	TRPML1 blocker	PINK1 expr mod	Sfp inh	Menin MLL FP FL	TRPML1 ag	ClpP mod	TRPV1 potentiator
Cc1ccc(C)c(-n2c(-c3ccc4c(c3)OCO4)n[nH]c2=S)c1	5	-1.6%[38.3 µM]	-2%	2.9	1.4	28µM*	1
CCC(c1nnnn1Cc1ccc2c(c1)OCO2)N1CCN(CC)CC1 (configuration not stated)	-24	3.6%	10%	3.6	-0.1	-6.4%	7
CN(CC(=O)Nc1cccc2ccccc12)C(=O)c1ccc(NC(=O)CC#N)cc1	23	4.0%	/	/	-0.8	/	/
CCCCN(CC)CCCNC(=O)c1ccc(CS(=O)(=O)c2c(Cl)cccc2Cl)o1	19	-1.6%	2%	3.9	0.1	0.7%	1
COc1ccc(OC)c(NC(=O)NCCCCc2ccccc2)c1	4	-0.3%	7%	1.6	2.1	-2.1%	15
O=C(NC(=S)N1CCN(c2ccc(O)cc2)CC1)c1ccco1	15	-2.4%	/	/	0.0	0.8%	/
Cc1noc(C(=O)Nc2cccnc2Cl)c1Cl	3	-1.8%	9%	-1.4	-0.3	/	-5
COc1ccc(NC(=O)C2CC(=O)OC2c2ccccc2)cc1 (configuration not stated)	-5	8.3%	2%	2.4	-0.4	-1.7%	1
O=C(COc1ccccc1Cl)NCc1ccco1	15	1.7%	7%	5.3	-1.2	0.6%	14
Cc1cccc(C)c1NS(=O)(=O)c1ccc(-c2cnc(C3CC3)o2)cc1	1	-0.2%	-5%	/	3.9	-27%	9
COc1ccccc1NC(=O)C(=O)NCCC1CCCCN1S(=O)(=O)c1ccc(F)cc1 (configuration not stated)	2	-1.1%	/	/	0.4	-1.5%	11
COc1cccc(CNC(=O)CCS(=O)(=O)c2ccc3c(c2)CC(C)N3C(=O)C2CC2)c1 (configuration not stated)	4&11	2.0%&3.0%	5%	0.3	0.6&1.1	1.6%&-4.9%	-6
COc1ccc(NC(=O)c2cccn2-c2nnc(N3CCCCC3)s2)cc1	10	1.9%	/	/	1.4	0.5%	22
COc1ccc(C(=O)O)cc1S(=O)(=O)Nc1ccccc1Cc1ccccc1	51	-1.2%	28%	1.7	-0.1	/	-7
COC(=O)c1ccc(CS(=O)(=O)c2ccc(F)cc2)o1	-19	2.6%	1%	-0.1	-0.6	0.3%	-16
Cc1oc2c(c(C)cc3oc(=O)c(CC(=O)NCc4ccccc4)c(C)c32)c1C	7	-0.3%	/	/	-0.3	-29%	/
O=C(Nc1ccccc1)OCCOc1ccc(Br)cc1	18	6.3%	9%	0.4	2.3	-3.9%	-3
COc1ccccc1NC(=O)Cc1csc(NC(=O)c2ccccc2)n1	-6	-1.2%	6%	-2.5	3.4	-1.5%	8
COc1ccc(-c2ccc(NS(=O)(=O)c3ccc(OC)c(OC)c3)cc2)nn1	-9	2.1%	/	/	0.4	-0.9%	/
COc1ccc(CC(=O)Nc2cccc(-c3ccc4nnc(C)n4n3)c2)cc1OC	17	4.9%	11%	0.8	0.8	/	-1
CCOC(=O)c1cc(CC)sc1NC(=O)C1CC(=O)NN1Cc1ccccc1 (configuration not stated)	-4	-4.0%	-22%	7.9	0.8	0.9%	-7
